Source: PubChem (Southern Research Institute)
Mtb H37Rv: Confirmatory growth inhibition assay against Mycobacterium tuberculosis H37Rv, potency (AID 1949) | inhibition, % at 10 µg/mL, or IC50 in µg/mL where a hit was titrated | most inactive calls were filed without a number and no value below 0 was filed | actives 1.6% (n = 100,000);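 active means confirmed in a dose series; inconclusive means about 50% or more but not retested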;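 further: bacteria grown 7 days with compound before Alamar blue readout; 0% = untreated bacteria and 100% = reference antibiotic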
Starred values were filed as active, the others as inactive; i = inactive; ? = inconclusive. These rows are one share of the data; count on the stated rates, not on these rows.

The first 5 entries (preview)
no.	canonical_smiles	Mtb H37Rv
1	CC(=O)Nc1ccccc1SCC(=O)Nc1sc2c(c1C#N)CCCC2	i
2	CCOc1ccc(NC(=O)CN(c2cc(C)ccc2OC)S(=O)(=O)c2ccc(C)cc2)cc1	i
3	Cc1cc(OCC(=O)O/N=C(\N)c2ccccc2)cc(C)c1Br	3%
4	O=C1C2C3C=CC(C3)C2C(=O)N1c1nccs1 (stereo not given)	i
5	COCCNC(=O)c1ccccc1NC(=O)c1ccc(N(C)S(C)(=O)=O)cc1	i

The listing (from the top)
no.	canonical_smiles	Mtb H37Rv
1	CC(=O)Nc1ccccc1SCC(=O)Nc1sc2c(c1C#N)CCCC2	i
2	CCOc1ccc(NC(=O)CN(c2cc(C)ccc2OC)S(=O)(=O)c2ccc(C)cc2)cc1	i
3	Cc1cc(OCC(=O)O/N=C(\N)c2ccccc2)cc(C)c1Br	3%
4	O=C1C2C3C=CC(C3)C2C(=O)N1c1nccs1 (stereo not given)	i
5	COCCNC(=O)c1ccccc1NC(=O)c1ccc(N(C)S(C)(=O)=O)cc1	i
6	COc1ccc(C(C)NC(=S)Nc2cc(Cl)ccc2OC)cc1 (stereo not given)	i
7	CN(CC(=O)Nc1ccc(C(F)(F)F)cc1)S(=O)(=O)c1ccc(Br)cc1	i
8	O=C(CCCOc1ccc(Cl)cc1)Nc1ccc(Br)cc1	i
9	CC1CN(C(=S)NC2CCCCC2)CC(C)O1 (stereo not given)	i
10	COc1cccc(Oc2nc(N)nc(N)n2)c1	i
11	C=CCn1c(CCC(=O)O)ccc1-c1cccs1	i
12	CC(NS(=O)(=O)c1ccc(Cl)cc1)C(N)=O (stereo not given)	i
13	O=C(CNC(=O)c1cccs1)OCc1ccc(C(=O)Oc2ccccc2)cc1	i
14	COc1cc(CO)cc(Br)c1OCc1ccccc1F	1%
15	O=C(Cn1cnc2ccccc21)N/N=C\c1cccnc1	i
16	CC(C)Cn1c(-c2ccccc2F)n[nH]c1=S	i
17	COc1ccc2c([N+](=O)[O-])c(SCc3ccccc3)[nH]c2c1	15%
18	CCOC(=O)N1CCc2c(sc(NCc3ccc(C)o3)c2C(=O)Nc2ccc(OC)cc2OC)C1	i
19	CCn1nnc(NC(=O)COc2ccc([N+](=O)[O-])cc2)n1	0%
20	Cn1nnnc1SCc1ccc(C(=O)Nc2nccs2)cc1	i
21	C=CCN(CC=C)C(=S)NCCc1ccc(OC)c(OC)c1	i
22	CCCNS(=O)(=O)c1ccc(NC(=O)c2cccnc2)cc1	i
23	CCn1c(SCC(=O)N2CCCCC2)nc2ccc(I)cc2c1=O	i
24	C=CCn1c(SCC(=O)Nc2cc([N+](=O)[O-])ccc2C)nnc1-c1ccccc1Cl	3%
25	CC(=O)N/C(=N\c1nc(C)cc(C)n1)Nc1ccc2ccccc2c1	i
26	NC(=O)C1CCN(C(=O)CCCOc2ccc(Cl)cc2Cl)CC1	i
27	CCCc1cc(C(=O)OCC)c(NC(=O)CCC(=O)O)s1	i
28	Cc1ccc(C(=O)CCNc2ccc(F)cc2)cc1	i
29	CCc1c(C)sc(NC(=O)c2ccc(Br)o2)c1C(=O)OC	5%
30	COc1ccc(-c2nc3n(n2)C(=O)CC(c2cccc(F)c2)S3)cc1 (stereo not given)	i
31	COc1ccc(Cc2nnc(NC(=O)c3cccs3)s2)cc1	i
32	CCOc1ccc(S(=O)(=O)n2cnc3ccccc32)cc1C	i
33	COc1ccc(OC)c(Nc2c3ccccc3nc3ccccc23)c1	?
34	O=C(NCc1ccccc1F)c1ccco1	i
35	CCOc1cc(CNCc2ccccn2)cc(Cl)c1OCC	?
36	CCN(CC)C(=O)c1sc(NC(=S)N2CCN(c3ncccn3)CC2)c(C(=O)OC)c1C	i
37	O=C(Cn1cnc2ccccc2c1=O)NCc1ccco1	i
38	O=C(C1CCN(Cc2c(F)cccc2Cl)CC1)N1CCN(Cc2ccccc2)CC1	i
39	O=C(COc1ccc2ccccc2c1)NCCNC(=O)c1ccco1	i
40	CCSc1nc2ccc(I)cc2c(=O)n1-c1ccccc1OC	2%
41	Cc1nn(C)c(C)c1NC(=O)CSc1nnc(C(c2ccccc2)c2ccccc2)n1C	i
42	O=C(COc1cc(Cl)c(Cl)cc1Cl)Nc1ccc(Br)cn1	5%
43	O=C(O)C1CCCCC1C(=O)Nc1nc(-c2cccs2)cs1 (stereo not given)	i
44	O=C(Nc1ccccc1C(=O)NCCc1ccccc1)c1cc(F)c(F)cc1Cl	2%
45	COc1ccccc1OCCCC(=O)NCc1ccco1	i
46	Cc1ccc(-c2nnc(OCC3CCCO3)c3ccccc23)cc1 (stereo not given)	5%
47	Cc1cc(=O)oc2c(C)c(OCc3ccc(C(=O)O)cc3)ccc12	i
48	CCOc1ccccc1NC(=O)C1(C)Cc2ccccc2C(=O)O1 (stereo not given)	i
49	COc1ccc(/C=C(/C#N)c2cccc([N+](=O)[O-])c2)c2ccccc12	1%
50	COc1ccc(-c2cc(C(F)F)n3ncc(C(=O)N4CC5(C)CC4CC(C)(C)C5)c3n2)cc1 (stereo not given)	38%
51	CC(C)NCCOc1cccc(Br)c1	i
52	O=C(NCc1ccco1)C1(c2ccccc2)CCOCC1	i
53	CC(=O)Nc1ccc(OC(=O)N(C)c2ccc(C)cc2)cc1	i
54	CC1=C(OS(=O)(=O)c2ccc(Cl)cc2)C(C)(C)C(c2ccc(Br)cc2)OC1=O (stereo not given)	6%
55	CN(C)C/C=C/C(O)(c1ccccc1)c1ccccc1	6%
56	CCNCc1cc(Br)ccc1OCC(N)=O	i
57	Cc1cc(C)c(OCCCCN(C)Cc2ccccc2)c(C)c1	3%
58	CCc1c(C)sc(NC(=O)c2sc3ccccc3c2Cl)c1C(=O)N1CCOCC1	4%
59	COc1ccccc1NC(=O)c1c(NC(=O)c2cccnc2)sc2c1CCC2	6%
60	COc1cc(NC(=O)C(c2ccccc2)c2ccccc2)c(C(=O)O)cc1OC	i

Remaining list, next part:
no.	canonical_smiles	Mtb H37Rv
61	Cc1cccc(C)c1OCc1nnc(SCC(=O)Nc2nc(-c3ccccc3)c(C)s2)o1	i
62	O=C1c2ccc(Oc3ccc(Br)cc3)cc2C(=O)N1CC1CCCO1 (stereo not given)	i
63	COC(=O)CCCCC1SCC(NC(=O)c2ccccc2)C1O (stereo not given)	i
64	O=S(=O)(c1ccc(Br)s1)N1CCN(c2ccc(Cl)cc2)CC1	i
65	Cc1cc(Nc2ccccc2C)c2cc(C(=O)O)ccc2n1	i
66	Cc1cccc(C(=O)Nc2sc3c(c2C(=O)NC(C)(C)C)CCC3)c1	i
67	O=C(O)CSc1nnc(SCc2cccc3ccccc23)s1	i
68	CC(=O)Nc1c(-c2ccccc2)c2cc(Br)ccc2[nH]c1=O	i
69	COc1cccc(OC)c1C(=O)Nc1cc(C)ccn1	i
70	COc1ccc(OC)c(S(=O)(=O)N(C)CC(=O)Nc2ccccc2F)c1	i
71	Cc1ccc(NC(=O)Cn2nc(C)c([N+](=O)[O-])c2C)cc1C	i
72	O=C(Nc1ccc2oc(-c3cccc(Cl)c3)nc2c1)c1ccco1	2%
73	COc1cc(-c2nc(-c3ccc(Br)cc3)no2)cc(OC)c1OC	i
74	CCc1ccc(C(=O)NC(=S)Nc2ccc(Cc3ccncc3)cc2)cc1	11µg/mL*
75	CCc1cccc(NC(=O)COc2ccccc2)c1	40%
76	CCOC(=O)c1ccc(NC(=O)C2CC(C)=C(C)CC2C(=O)O)cc1 (stereo not given)	i
77	COc1ccc(NC(=S)NNC(=O)C(C)Oc2ccc(F)cc2F)cc1OC (stereo not given)	i
78	COc1ccccc1NC(=O)CSc1nnc(NC(=O)CCc2ccccc2)s1	i
79	CCOC(=O)c1ccc(NC(=S)NC(=O)CCc2ccccc2)cc1	1.8µg/mL*
80	COc1ccc(/C(N)=N/OC(=O)c2ccccc2F)cc1OC	i

An excerpt of these results, field by field:
[59] COc1ccccc1NC(=O)c1c(NC(=O)c2cccnc2)sc2c1CCC2
  Mtb H37Rv: 6%

[53] CC(=O)Nc1ccc(OC(=O)N(C)c2ccc(C)cc2)cc1
  Mtb H37Rv: i

Carrying on.
no.	canonical_smiles	Mtb H37Rv
81	Cc1ccc(NC(=O)CSc2nnnn2C)c(C)c1	i
82	O=C(CC1NC2CCCCC2NC1=O)Nc1ccc(F)cc1 (stereo not given)	i
83	Cc1ccc2c(c1)C(c1c[nH]c3ccccc13)(c1c[nH]c3ccccc13)C(=O)N2C	i
84	O=[N+]([O-])c1ccc(OCCN2CCNCC2)cc1	i
85	CCn1cc(CN(C)C(=S)Nc2ccc(Br)cc2Cl)c(C)n1	i
86	CSc1ccc(S(=O)(=O)NCCOc2ccccc2C)cc1	4%
87	CC(C)NS(=O)(=O)c1cc(C(=O)O)ccc1Cl	i
88	CC(=O)c1ccc(NS(=O)(=O)c2ccccc2)cc1	i
89	Cc1ccc(NC(=O)c2ccccc2)s1	i
90	Cc1cc(OCC(=O)O/N=C(\N)c2ccc(Cl)cc2)cc(C)c1Br	5%
91	Cc1nc2ccccc2c(=O)n1NC(=O)C(Cl)(Cl)Cl	i
92	Cc1[nH]c2ccccc2c1C(=O)C(=O)NC1CCCCC1	i
93	Cc1ccc(-n2c3c(cc(C(=O)N4CCCC4)c2=O)C(=O)CC(C)(C)C3)cc1	i
94	COc1ccc([N+](=O)[O-])cc1CNCCO	i
95	CC(C)OC(=O)c1ccc(NC(=O)C(Cc2ccccc2)N2C(=O)C3C4C=CC(C4)C3C2=O)cc1 (stereo not given)	2%
96	COc1ccc(C2CC(c3cccs3)n3nc(N)nc3N2)cc1 (stereo not given)	i
97	Cc1cccc(NC(=S)Nc2ccccc2Cl)c1	i
98	COCc1c(OC)ccc2cc(Br)ccc12	i
99	O=C(NC12CC3CC(CC(C3)C1)C2)N1CCC(O)(c2cccc(C(F)(F)F)c2)CC1	5%
100	Cn1c(SCC(=O)NC2CCCCC2)nnc1-c1ccco1	1%
101	CCOc1ccc(C2NC(=S)NC(C)=C2C(=O)Nc2ccccc2Cl)cc1 (stereo not given)	i
102	CC(C)CNC(=O)c1ccccc1NC(=O)CN(c1cccc(C(F)(F)F)c1)S(C)(=O)=O	i
103	Cc1ccc(C)c(OC(=O)CN2C(=O)C3C4C=CC(C5CC45)C3C2=O)c1 (stereo not given)	37%
104	CC(=O)Nc1ccc(-c2nnc(SCC(=O)n3c4c(c5ccccc53)CCCC4)n2C)cc1	i
105	O=C(NCC1CCCO1)c1ccc(Cl)c(S(=O)(=O)N2CCOCC2)c1 (stereo not given)	i
106	O=C(O)CCNc1ncnc2sc3c(c12)CCC3	i
107	COc1ccccc1CNC(=O)CSc1ccc(Cl)cc1	2%
108	COc1cc(NC(=O)c2ccccc2F)ccc1NC(=O)C(C)C	1%
109	Cc1ccc(C)c(NC(=S)N2CCN(Cc3ccccc3)CC2)c1	3%
110	COc1c(C)cccc1C(=O)N1CCN(c2ccc([N+](=O)[O-])c(NC(C)c3ccccc3)c2)CC1 (stereo not given)	5%
111	Cc1ccn(S(=O)(=O)c2ccc(F)cc2)n1	0%
112	COC(=O)COc1ccc(NC(=O)c2ccc3c(c2)C(=O)N(C(C)(C)C)C3=O)cc1	0.32µg/mL*
113	COc1cc(C)cc2oc(=O)c(CC(=O)O)c(C)c12	i
114	O=C(Cc1ccc(F)cc1)Nc1ccccc1C(=O)Nc1ccccc1	3%
115	COc1ccccc1N1CCN(C(=S)Nc2ccc(F)cc2)CC1	i
116	COc1ccc(NS(=O)(=O)c2cc(-c3nn(C)c(=O)c4ccccc34)ccc2C)cc1	4%
117	CC(=O)c1ccc(NC(=O)c2ccccc2N(Cc2ccccc2)S(C)(=O)=O)cc1	i
118	Cc1cccc2c1NC(=O)C2(O)c1c[nH]c2ccccc12 (stereo not given)	i
119	O=C(CSc1nnc(CCc2ccccc2)n1-c1ccccc1)Nc1ccccc1C(F)(F)F	i
120	O=C1NN(c2ccccc2)C(=O)/C1=C/c1ccc(OC(=O)c2ccco2)c(Cl)c1	i

Reformatted: results already given
119. O=C(CSc1nnc(CCc2ccccc2)n1-c1ccccc1)Nc1ccccc1C(F)(F)F
- Mtb H37Rv: i
88. CC(=O)c1ccc(NS(=O)(=O)c2ccccc2)cc1
- Mtb H37Rv: i

Later entries:
no.	canonical_smiles	Mtb H37Rv
121	COc1ccc(CCNS(=O)(=O)c2cccc(F)c2)cc1OC	i
122	CCc1cccc(OCCCCNCCOC)c1	i
123	O=C(c1ccc(S(=O)(=O)N2CCCC2)cc1)N1CCN(C/C=C/c2ccccc2)CC1	i
124	Cc1cccc(C(C)(C)C)c1OCCOCCn1ccnc1	4µg/mL*
125	C=CCn1c(SCc2ccccc2)nc(O)cc1=O	i
126	Cc1cccc(NC(=O)Cn2cc(CO)c3ccccc32)c1	i
127	COc1ccc(C(=O)Nc2cc(C)c(O)c(C)c2)cc1	i
128	COC(=O)c1ccc(Nc2cc(C)nc3c(C)cccc23)cc1	0%
129	COc1cc2c(cc1OC)C(c1cccc([N+](=O)[O-])c1)CC(=O)N2 (stereo not given)	i
130	CCc1cc(C(=O)OC)c(NC(=S)Nc2cc(Cl)c(OC)cc2OC)s1	i
131	COc1ccc(OC)c(C(=O)CCC(=O)Nc2cccc3ccccc23)c1	1%
132	O=C(O)c1cccc(COc2ccc(CO)cc2)c1	i
133	C=CCSc1nnc(-c2ccccc2NC(=O)CC)c(=O)[nH]1	i
134	CN(c1ccccc1C(=O)Nc1ccc(S(=O)(=O)N2CCCC2)cc1)S(C)(=O)=O	i
135	CC(=O)NC(Cc1c[nH]c2ccccc12)C(N)=O (stereo not given)	i
136	Cc1nnc(SCc2ccc(Cl)cc2Cl)n1-c1ccccc1	i
137	COc1ccc(-c2csc3nc(-c4ccccc4OC)oc(=O)c23)cc1	?
138	CN(C)CCCN(CCCN(C)C)Cc1c(F)cccc1Cl	2%
139	Cc1nnc(SCC(=O)NCCc2ccccc2)s1	i
140	COC(=O)CNC(=O)Cc1c(F)cccc1Cl	i
141	Cc1ccc(CC2C(=O)N(c3ccc(Cl)cc3)C(=O)C2C)cc1 (stereo not given)	i
142	CC(=O)c1cccc(NC(=O)CC23CC4CC(CC(C4)C2)C3)c1	i
